Cruzain inh Det: cruzain (T. cruzi) inhibition with detergent; purified cruzain, Z-FR-AMC fluorescence, 0.01% Triton; Potency, µM, inactives show max response, negative = inhibition, actives largely listed as inhibitors; actives 0.43% (n = 200,000);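 also: plate controls were neutral wells for no effect and buffer without enzyme for full effect; nearly all actives have a fitted effect of over 40% in size; top concentration of the series not given in the record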
Target sequence (P25779 123-467 limits assumed): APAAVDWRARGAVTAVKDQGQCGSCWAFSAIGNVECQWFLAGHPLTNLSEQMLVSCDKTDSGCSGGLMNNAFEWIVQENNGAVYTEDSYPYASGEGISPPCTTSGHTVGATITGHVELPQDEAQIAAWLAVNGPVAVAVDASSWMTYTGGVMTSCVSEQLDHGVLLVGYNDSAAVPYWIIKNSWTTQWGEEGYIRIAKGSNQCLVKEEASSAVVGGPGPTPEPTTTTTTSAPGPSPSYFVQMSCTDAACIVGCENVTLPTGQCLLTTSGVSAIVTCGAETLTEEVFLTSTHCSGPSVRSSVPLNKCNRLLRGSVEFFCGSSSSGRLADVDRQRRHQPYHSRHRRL
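Z-FR-AMC hydrolysis (2 uM substrate) by cruzain (1.5 nM) monitored kinetically at ex 360/em 450 nm after 15 min room-temperature compound exposure; 0.01% Triton X-100, pH 5.5, 5 mM DTT.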
StopGo reporter: FMDV 2A StopGo reporter, luciferase signal; Potency, µM (titrated, usually from 57.9 µM), without a hit: at the top dose signal change, negative = less light; human cells with a luciferase reporter of 2A StopGo recoding; control for the full effect not named in the record; actives 1.2% (n = 410,000); active = well fitted falling curve with a large enough effect; inconclusive = small, poorly fitted or top-dose-only effect; inactive = no such curve, though single readings can be large or run the other way; tested in HEK293T cells; also: % is scaled to controls: 0 for no effect and ±100 for the full control effect; nearly all actives have a fitted effect of over 45% in size; luciferase light after 4 h
Cruzain inh noDet: blocks cruzain activity in detergent-free assay; P25779; purified cruzain, Z-FR-AMC fluorescence, no detergent; Potency, µM, without a hit: max response, negative = inhibition, actives largely listed as inhibitors; actives 2.3% (n = 200,000); AID 1476;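 also: plate controls were enzyme without inhibitor for no effect and buffer without enzyme for full effect; nearly all actives have a fitted effect of over 40% in size; top concentration of the series not given in the record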
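Detergent-free condition (0.00005% Triton X-100) in acetate buffer pH 5.5 with DTT. 1.5 nM enzyme and compound were pre-mixed 15 min, then 2 uM Z-FR-AMC substrate added; reaction progress from fluorescence change between first and third reads (60 s).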
Lassa entry inh: Lassa virus entry inhibition | AID 540256 | Potency, µM (doses to about 37.9 µM), without a hit: top-dose activity change, negative = inhibition, most hits filed as inhibitors | actives 1.2% (n = 300,000) | Lassa virus pseudotype entry inhibition, cell reporter; control for the full effect not named in the record; active means well fitted inhibition curve with a large enough effect; inconclusive means small, poorly fitted or top-dose-only effect, or effect the other way; inactive means flat fitted curve, though single readings scatter; tested in HEK293 cells; also: % is scaled to controls: 0 for no effect and ±100 for the full control effect; nearly all actives have a fitted effect of over 50% in size; luciferase read-out
NS1 inh: inhibitors of influenza NS1 protein function; S. cerevisiae slowed by influenza A NS1, growth recovery by OD600; Potency, µM (top dose mostly 46.1 µM), inactives show at the top dose activity, positive = more growth; actives 0.4% (n = 270,000); AID 2326; active means well fitted rising curve with a large enough effect; inconclusive means small, poorly fitted or top-dose-only effect; inactive means no such curve, though single readings can be large or run the other way; also: nearly all actives have a fitted effect of over 50% in size
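A cell-based growth assay was used: compounds that relieve NS1-induced slow growth of budding yeast raise OD600. Assay medium was yeast nitrogen base with ammonium sulphate and -URA supplement, pH 6.0, with 2% galactose.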
SARS PLpro yeast: inhibitors of SARS-CoV papain-like protease in yeast. S. cerevisiae expressing SARS-CoV PLpro, growth rescue; control for the full effect not named in the record. Potency, µM (series often up to 32.9 µM), without a hit: top-dose activity, positive = growth rescue. actives 0.19% (n = 330,000). AID 485353; active means well fitted rising curve with a large enough effect; inconclusive means small, poorly fitted or top-dose-only effect; inactive means no such curve, though single readings can be large or run the other way; also: 0% is about no effect; nearly all actives have a fitted effect of over 55% in size; growth read by luminescence after 48 h
RE007 growth inh: less growth of the S. pombe RE007 Vpr strain | S. pombe RE007 Vpr strain, BacTiter-Glo ATP luminescence, 24 h; control for the full effect not named in the record | Potency, µM (doses to about 92.2 µM), for the others: at the top dose activity change, negative = less growth | actives 0.21% (n = 360,000); active = well fitted falling curve with a large enough effect; inconclusive = small, poorly fitted or top-dose-only effect; inactive = no such curve, though single readings can be large or run the other way;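 also: % is scaled to controls: 0 for no effect and ±100 for the full control effect; nearly all actives have a fitted effect of over 50% in size; the assay follows cell death caused by Vpr and the record does not say whether a fall means rescue or toxicity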
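Fission yeast strain RE007, carrying one chromosomally integrated HIV-1 vpr copy, was seeded at OD 0.01 in PMG+AL medium with 23 nL pinned compound. After 24 h at 30 °C and 99% humidity, viability was read by BacTiter-Glo luminescence.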
Marburg entry inh: Marburg virus entry inhibition | Potency, µM (series often up to 37.8 µM), for the others: at the top dose activity change, negative = inhibition, usual class: inhibitors | Marburg virus pseudotyped entry inhibition, cell reporter; control for the full effect not named in the record; about a third of the inactives were read at about 46 µM | AID 540276 | actives 1.8% (n = 300,000); active = well fitted inhibition curve with a large enough effect; inconclusive = small, poorly fitted or top-dose-only effect, or effect the other way; inactive = flat fitted curve, though single readings scatter; tested in HEK293 cells; about a fifth of its hits are not listed in these tables; also: % is scaled to controls: 0 for no effect and ±100 for the full control effect; luciferase read-out
The depositor's hits bear a star; ? = inconclusive; / = not tested or not shown; & = joins results of further samples; [ ] = dose if it differs, or a comment. Unless noted, calls follow the shape of the dose curve; as a rule, active = well fitted curve in the direction sought with a large enough effect; inconclusive = small, poorly fitted or top-dose-only effect, or another doubt; inactive = no such curve, though single readings can be large; an effect the other way counts as inactive or inconclusive. Potency is read from the fitted curve at half-maximal effect.

Results follow in this order: Cruzain inh Det | StopGo reporter | Cruzain inh noDet | Lassa entry inh | NS1 inh | SARS PLpro yeast | RE007 growth inh | Marburg entry inh
1	CC1CCCN(C(=S)SCC(=O)O)C1 (stereo not drawn)
    0.0% | -14% | -7% | -1% | ? | -5% | 3% | ?
2	CCOc1ccccc1CNC(=O)CN1C(=O)CSc2ccc(S(=O)(=O)N3CCOCC3)cc21
    0.4% | 16%&-6% | -14% | ? | -8% | 5% | 5% | /
3	O=C(CN1C(=O)NC2(CCc3ccccc3C2)C1=O)Nc1ccc(Cl)cc1F (stereo not drawn)
    -1.6% | -19% | -7% | -4% | 2% | ? | 4% | 25%
4	CCOC(=O)Nc1sc(C(=O)N(C)C)c(C)c1C(=O)OCC
    -0.4% | -8% | -7% | -9% | 7% | 2% | -13% | 1%
5	CCN(CC)CCn1c(NS(=O)(=O)c2ccc(Cl)cc2)nc2ccccc21
    / | 17% | / | / | -1% | 0% | -18% | /
6	Cc1csc(-c2cccnc2)n1
    -1.7% | 4% | 4% | ? | -10% | -9% | 31% | 0%
7	COc1ccc(C(C)=O)cc1COc1ccc(F)cc1
    / | -17% | / | 2% | -7% | 0% | -10% | -4%
8	CCOc1c(C)cc(S(=O)(=O)NCc2ccccn2)c(C)c1C
    / | -4% | / | -19% | -4% | 0% | 1% | 0%
9	O=C(O)CC(Cc1ccc(Br)cc1)C(=O)O (stereo not drawn)
    2.3% | 12% | 3% | 14% | 7% | 3% | 22% | 24%
10	O=C(COC(=O)c1ccc(S(=O)(=O)N2CCCC2)cc1)NCc1cccs1
    / | -13% | / | 11%[46.1 µM] | / | 4% | 1% | -2%[46.1 µM]
11	CN(C)c1cc(NC(=O)CNC(C)(C)CC(C)(C)C)c2ccccc2n1
    / | -26% | / | ? | / | -6% | -17% | ?
12	CSc1cccc(NC(=O)CSc2ncccc2C(=O)Oc2cccc([N+](=O)[O-])c2)c1
    -1.9% | 0% | ? | 14% | 3% | 0% | -9% | -5%
13	Cc1cccc(NC(=O)CN(C)S(=O)(=O)c2cccc3nsnc23)c1C
    0.1% | 2% | 0% | -6% | 2% | 0% | 1% | 6%
14	CC(=O)c1ccc(OCc2cc(C(=O)NC(C)Cc3ccccn3)no2)cc1 (stereo not drawn)
    / | -8% | / | / | 3% | -6% | -4% | /
15	CCOc1ccc(Oc2ccc(S(=O)(=O)N3CCOCC3)cc2NC(=O)C2=COCCO2)cc1
    / | 16% | / | -6% | / | 4% | 0% | -13%
16	CC(=O)Nc1ccc(S(=O)(=O)Nc2cccc(NC(=O)c3ccco3)c2)cc1
    / | 12% | / | -4%[46.1 µM] | -24% | 2% | -11% | -9%[46.1 µM]
17	CC(C)c1ccc(NC(=O)Cn2nnc(C(=O)NCCc3ccccc3)c2N)cc1
    0.0% | 12% | 3.2µM* | ? | / | / | / | /
18	CCOc1ccccc1C(=O)NC1(C(F)(F)F)C(=O)Nc2c1c(=O)[nH]c(=O)n2-c1ccc(F)cc1 (stereo not drawn)
    -0.5% | -23% | 4% | 4%[46.1 µM] | / | / | / | ?
19	CCOc1ccccc1NS(=O)(=O)c1c(C)[nH]c(C)c1C(=O)N1CCCCC1
    / | 13% | / | 7%[46.1 µM] | -2% | -23% | -11% | 23%[46.1 µM]
20	CCOC(=O)c1cc(-c2ccccc2)sc1NC(=S)Nc1cc(C)ccn1
    6.8% | -32% | 13µM* | 9% | 2% | -6% | 4% | -14%

Given with one line to a screen: 6 of the compounds above.
15. CCOc1ccc(Oc2ccc(S(=O)(=O)N3CCOCC3)cc2NC(=O)C2=COCCO2)cc1
16. CC(=O)Nc1ccc(S(=O)(=O)Nc2cccc(NC(=O)c3ccco3)c2)cc1
17. CC(C)c1ccc(NC(=O)Cn2nnc(C(=O)NCCc3ccccc3)c2N)cc1
18. CCOc1ccccc1C(=O)NC1(C(F)(F)F)C(=O)Nc2c1c(=O)[nH]c(=O)n2-c1ccc(F)cc1 (stereo not drawn)
19. CCOc1ccccc1NS(=O)(=O)c1c(C)[nH]c(C)c1C(=O)N1CCCCC1
20. CCOC(=O)c1cc(-c2ccccc2)sc1NC(=S)Nc1cc(C)ccn1

assay / compound | 15 | 16 | 17 | 18 | 19 | 20
Cruzain inh Det | / | / | 0.0% | -0.5% | / | 6.8%
StopGo reporter | 16% | 12% | 12% | -23% | 13% | -32%
Cruzain inh noDet | / | / | 3.2µM* | 4% | / | 13µM*
Lassa entry inh | -6% | -4%[46.1 µM] | ? | 4%[46.1 µM] | 7%[46.1 µM] | 9%
NS1 inh | / | -24% | / | / | -2% | 2%
SARS PLpro yeast | 4% | 2% | / | / | -23% | -6%
RE007 growth inh | 0% | -11% | / | / | -11% | 4%
Marburg entry inh | -13% | -9%[46.1 µM] | / | ? | 23%[46.1 µM] | -14%

Further compounds follow:
item | SMILES | Cruzain inh Det | StopGo reporter | Cruzain inh noDet | Lassa entry inh | NS1 inh | SARS PLpro yeast | RE007 growth inh | Marburg entry inh
21 | Cc1ccc2c(c1)cc1c(=O)n(Cc3ccccc3Cl)nc(C)n12 | -2.0% | -5% | -4% | -2%[46.1 µM] | / | / | / | ?
22 | CCCCCC(=O)NNC(=S)NC(C)=O | / | -6% | / | 27% | -3% | 1% | 2% | 26%[46.1 µM]
23 | COc1ccc(N(CC(=O)NC2CCS(=O)(=O)C2)S(=O)(=O)c2ccc(Cl)c(Cl)c2)cc1 (stereo not drawn) | / | -13% | / | ? | / | -3% | -6% | 1%[46.1 µM]
24 | COc1ccc(CNC(=O)C2CCC(=O)N(CCCN3CCCC3=O)C2)c(OC)c1 (stereo not drawn) | / | 3% | / | / | 6% | 9% | -4% | /
25 | Cc1c(CCC(=O)NCC(=O)O)c(=O)oc2cc3occ(-c4ccccc4)c3cc12 | / | -16% | / | / | 2% | -2% | -10% | /
26 | O=C(COc1ccccc1Cl)Nc1ccc(C(=O)c2ccc(C(=O)O)cc2)cc1 | / | 5% | / | ? | -2% | -2% | -33% | -3%[46.1 µM]
27 | CCOC(=O)c1c(C)c(-c2ccccc2)n(CC(=O)Nc2cc(C)ccc2OC)c1C | 1.4% | -15% | 3% | / | / | / | / | 12%[46.1 µM]
28 | COc1ccc(NC(=O)CCN2CCN(S(=O)(=O)c3ccc(F)cc3)CC2)cc1 | / | 9% | / | / | 9% | 16% | 10% | /
29 | CCn1cnc2cc(NCc3ccc(N(C)C)cc3)ccc21 | -5.3% | -11%&-13% | -8% | ? | / | 1% | -2% | ?
30 | O=C(Cc1ccccc1Cl)Nc1cccc(S(=O)(=O)N2CCOCC2)c1 | -2.8% | 21% | -7% | -13% | -11% | 12% | 21% | ?
31 | Cc1ccc(C(=O)Nc2cccc([N+](=O)[O-])c2)cc1S(=O)(=O)Nc1ccc(C(=O)O)cc1 | / | 13% | / | 1% | / | -6% | -3% | 7%[46.1 µM]
32 | COc1ccc(CNC(=O)C2CCCN(C(=O)N3CCOc4ccccc43)C2)cc1 (stereo not drawn) | 0.7% | -19% | 4% | -17%[46.1 µM] | / | / | / | /
33 | CN(C)C(=O)CSc1nc2cc(S(=O)(=O)N3CCOCC3)ccc2o1 | / | 0% | / | 3% | / | 10% | -6% | -22%
34 | Cc1ccc(NC(=O)CSCc2nc3c(nnn3Cc3ccc(F)cc3)c(=O)[nH]2)c(C)c1 | / | -14% | / | 5% | 0% | 0% | -12% | -2%[46.1 µM]
35 | O=C(c1cc(COc2ccc(F)cc2F)on1)N1CCN(C2CCCC2)C(=O)C1 | / | 4% | / | ? | -59% | 4% | -8% | ?
36 | COc1ccc(-n2c(=O)c3ccccc3n(Cc3cccc(C)c3)c2=O)cc1OC | / | -20% | / | -23% | / | 3% | -2% | ?
37 | C=CCN1C(=O)c2ccc(C(=O)N3CCN(S(=O)(=O)c4ccc(C(C)C)cc4)CC3)cc2C1=O | / | -25% | / | 24% | / | 7% | 6% | 3%[46.1 µM]
38 | O=C(Nc1cccnc1)c1c(F)cccc1F | -1.0% | 25% | -2% | -28%[14.3 µM] | 4% | 8% | -6% | 4%
39 | COc1ccc(-n2cnnc2SC(C)c2nc3sc(C)c(C)c3c(=O)[nH]2)cc1 (stereo not drawn) | 4.9% | / | -24% | / | ? | 1% | / | 4%
40 | C/C(CC(=O)Nc1cccc(Cl)c1Cl)=N\NC(=O)C(=O)N1CCCC1 | / | 0% | / | 0% | 0% | -2% | -11% | 3%
41 | CCOP(=O)(CCP(=O)(OCC)OCC)OCC.C[CH2][Sn]([Cl])([Cl])[CH2]C | / | 2.8µM* | / | 13µM* | / | / | -5% | ?
42 | Cc1cccc(N2C(=O)CN(Cc3ccccc3)C2=S)c1 | / | 2% | / | 13%[46.1 µM] | 1% | -1% | -3% | 19%[46.1 µM]
43 | COC(=O)c1ccc(SCc2cnc(Cl)s2)cc1 | 1.0% | 11% | 2% | -1% | -134% | -3% | -3% | 22%
44 | O=C(O)CC(NCc1ccco1)C(=O)OCC1CCCO1 (stereo not drawn) | -0.4% | -8% | -3% | -13% | 15% | 2% | 18% | 1%
45 | COc1ccc(C(NC(N)=O)c2ccccc2)cc1 (stereo not drawn) | -1.5% | 14% | -3% | -5% | 3% | 0% | -2% | 22%
46 | COc1cccc(/C=N/NC(=O)CSc2nnc(C)n2-c2ccccc2)c1O | 1.8% | 21% | -5% | ? | -1% | 6% | -12% | ?
47 | CCOC(=O)c1c(NC(=O)CSc2nnc(-c3cccnc3)n2Cc2ccco2)sc(C)c1C | -16% | -18% | ? | -22% | -8% | -2% | 20% | ?
48 | Cc1cc([N+](=O)[O-])cc2c1NC(c1ccccn1)C1CC=CC21 (stereo not drawn) | / | -9% | / | 6%[46.1 µM] | 2% | 0% | -3% | -7%[46.1 µM]
49 | N#Cc1ccc(OCC(=O)NC2CCCCCC2)cc1 | / | 11% | / | ? | / | ? | -1% | 21%[46.1 µM]

Compound activity from PubChem.
